# Screening data: PubChem, several laboratories
# CSC inhib: blocks cancer stem cells; cancer stem cell-like cells viability, luminescence; inhibition, % at 7.5 µM; 1.1% of 300,000 active;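 active = mean at 75% or more and at least half the replicates too; inconclusive = mean and replicates disagree; tested in HMLE shEcad cells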;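 also: 0% = median of negative and 100% = median of positive control wells; the first replicate is given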
# PABP FP inh: blocks human PABP binding to poly(A) RNA | P11940 | inhibition, % at 35 µM | 1% of 290,000 active | fluorescence polarization;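 active = 50% or more with normal probe brightness, or confirmed in later tests; inconclusive = above 50% with abnormal brightness, or retests that disagree; inactive = below 50% or failed in later tests; about a fifth of its hits are not listed in these tables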;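 also: calls also rest on retests at 20 µM and on dose response follow-up; controls were probe without protein and protein plus probe with vehicle; some compounds called inactive have numbers as strong as hits; many hits fall short of the cut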
# Yeast UUG start: alters start codon recognition fidelity in yeast | S. cerevisiae UUG-firefly luciferase reporter, luminescence/redox ratio | activity score, % at 18.7 µM | 0.13% of 350,000 active | AID 602363;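 active = replicate mean at a twofold rise or more, about +100% in these data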;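 also: firefly luciferase made from a UUG start codon reports start codon fidelity; reporter light over untreated wells divided by growth signal over untreated wells; some hits fall short of that in this replicate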
# Rce1 inh: yeast Ras-converting enzyme inhibition; yeast membranes, quenched prenylated peptide cleavage fluorescence; calls only; 0.27% of 290,000 active; AID 2563;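 active = fall in fluorescence gain of 50% or more versus controls, with final raw signal at or below 3038400; inconclusive = same 50% fall but final raw signal above 3038400; inactive = fall in fluorescence gain under 50%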;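 also: plate controls were neutral control wells for no effect and wells lacking membranes for full effect; tested at 10 µM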
# Target sequence (Q03530 whole entry, looked up): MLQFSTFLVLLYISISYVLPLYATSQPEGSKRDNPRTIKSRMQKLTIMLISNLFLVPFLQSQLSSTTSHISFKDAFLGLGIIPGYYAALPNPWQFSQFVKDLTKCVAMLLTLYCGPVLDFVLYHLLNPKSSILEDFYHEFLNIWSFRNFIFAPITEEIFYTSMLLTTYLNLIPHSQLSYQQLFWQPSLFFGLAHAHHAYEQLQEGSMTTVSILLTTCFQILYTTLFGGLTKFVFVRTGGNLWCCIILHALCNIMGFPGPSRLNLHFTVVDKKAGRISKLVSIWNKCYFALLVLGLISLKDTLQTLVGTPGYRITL
# MT1-MMP act inh: blocks activation of human MT1-MMP. AID 651647. 0.061% of 360,000 active. P50281. GFP/RFP ratio change, % at 20 µM. HT1080 RFP-PRO-GFP cells, GFP/RFP ratio fluorescence, overnight; percent of plate control window, DMSO zero;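 active = GFP/RFP ratio change of at least 30% with cell ATP level not reduced by more than half and red fluorescence within 50% of control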; also: strong numbers were not always called active
#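 Assay system: HT1080 RFP-PRO-GFP cells | Dosing: 20 µM single dose, 1% DMSO | Incubation: Cells overnight before dosing, compound overnight, 37 °C, 5% CO2 | Evaluation: GFP/RFP fluorescence ratio | Control set: DMSO-only wells and HT1080 RFP-L50D-GFP cell wells as references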
# eIF4H FP inh: inhibitors of RNA binding by human eIF4H | Q15056 | eIF4H fluorescence polarization binding assay | inhibition, % at 35 µM | 0.94% of 290,000 active;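 active = 50% or more with normal probe brightness, or confirmed in later tests; inconclusive = above 50% with abnormal brightness, or retests that disagree; inactive = below 50% or failed in later tests; about a fifth of its hits are not listed in these tables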;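 also: calls also rest on retests at 20 µM and on dose response follow-up; 0% = protein and probe with vehicle and 100% = probe without protein; strong numbers were not always called active; many hits fall short of the cut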
# Env fusion inh: blocks HIV Env-driven cell-cell fusion; 1.1% of 360,000 active; HeLa-JRFL Env/CEM21 cell fusion, luciferase; inhibition, % at 12.3 µM;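 active = mean replicate inhibition score of at least 50 and every replicate individually at or above 50; inconclusive = only one of the two criteria met; inactive = mean below 50 and not all replicates reaching 50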;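 also: 0% = plate neutral controls and 100% = maraviroc near 300 nM; one replicate is shown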
# MT1-MMP act inh RFP: recorded beside MT1-MMP act inh, whose call it bears; RFP signal change, %; measured here: RFP expression control read;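 0 = vehicle wells; hits needed this value within 50% of zero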
# An asterisk follows results filed as active; i = inactive; ? = inconclusive; / = not tested or not shown. An excerpt (hit frequency here may not be typical).
smiles | CSC inhib | PABP FP inh | Yeast UUG start | Rce1 inh | MT1-MMP act inh | MT1-MMP act inh RFP | eIF4H FP inh | Env fusion inh
O=S1(=O)CCC(NC(=S)N2CCCCC2)C1 (stereo not drawn) | -10.1 | -2.2 | -6.0 | i | -11.1 | 0.6 | -4.8 | 2.2
FC(F)Sc1ccc(N=C2NN=C(c3ccc4c(c3)OCCO4)CS2)cc1 | 20.1 | -0.1 | -17.3 | i | -10.8 | -19.0 | -1.8 | -32.3
Cc1ccccc1C(=O)NNC(=O)C12CC3CC(CC(C3)C1)C2 | -4.1 | -6.2 | / | / | 1.0 | 2.3 | -0.5 | -2.9
CC(C)n1cc(C(=O)NC2CC(C)(C)Cc3c2cnn3-c2ccccc2)cn1 (stereo not drawn) | -3.3 | -3.3 | -9.9 | i | -1.3 | -1.2 | -2.1 | -0.2
O=C(NCc1cccnc1)C1CCC(c2ccc(Cl)cc2)CC1 (stereo not drawn) | 9.5 | 3.8 | / | i | 1.5 | -27.7 | -7.7 | 10.2
Cc1cccc(-c2nc3ccccc3c(=O)n2NC(=O)/C=C/c2ccc([N+](=O)[O-])cc2)c1 | 4.8 | -1.8 | / | i | -1.0 | -5.1 | -2.6 | -11.8
COc1ccc(/C=N/NC(=O)c2ccc(-n3cnnn3)cc2)cc1 | / | / | -16.2 | / | 1.3 | 2.0 | / | -5.6
Cc1ccc(C)c(OCCC(=O)N2CCN(S(=O)(=O)c3cc(C)ccc3C)CC2)c1 | 1.2 | / | -12.1 | i | -1.3 | -7.2 | / | 10.6
Cc1ccc(OCCC(=O)OCC(=O)N2CCN(S(=O)(=O)c3ccc(C)cc3C)CC2)cc1 | -9.6 | / | 9.3 | i | -2.3 | 0.8 | / | -10.6
Nn1c(CSc2ccccn2)nc2ccccc2c1=O | -10.3 | 4.0 | -17.1 | i | -1.8 | 3.6 | -5.7 | /
O=C(N/N=C/c1cc([N+](=O)[O-])ccc1O)c1c[nH]c2ccccc12 | ? | 0.7 | / | i | 1.6 | -3.9 | 13.0 | 15.3
Cc1cc(NC(=O)C(C)C)ncc1NC(=O)c1ccccn1 | / | -5.8 | / | i | 3.5 | 6.2 | -0.8 | 8.4
CN(C)S(=O)(=O)c1cccc(NC(=O)COc2ccc3ccccc3c2)c1 | / | / | -7.8 | / | 3.9 | -4.8 | / | -3.8
CC(C)N(C)c1ncnc2c1ncn2[C@H]1CN(C2CCCC2)C[C@@H](CO)O1 | / | / | -22.4 | / | -1.0 | 5.0 | / | -35.5
CN1C(=O)C2(NC(=O)c3ccccc3N2C)c2ccccc21 (stereo not drawn) | -8.7 | -3.7 | 0.3 | i | 8.2 | 6.1 | 4.8 | -6.4
Cc1ccc(NC(=O)OCCNC(=O)OC(C)C)cc1 | -19.0 | -7.5 | / | i | 2.2 | 1.4 | -3.9 | -29.2
COc1ccc2c3c(cccc13)C(=O)CC2 | 36.5 | ? | / | i | -10.3 | 30.8 | ? | 10.9
CC(C)c1ccc2[nH]c(O)c(N=NC(=O)c3cccc(S(=O)(=O)N4CCCCC4)c3)c2c1 | 23.3 | 1.8 | -8.3 | i | -2.7 | -28.6 | -2.5 | 1.6
CN1CCN(C2=NC(=O)/C(=C/c3ccccc3OS(=O)(=O)c3ccccc3)S2)CC1 | -4.3 | -7.6 | / | i | -1.8 | -0.1 | 10.5 | 16.9
Cc1cc(/C=C(\C#N)C(=O)Nc2ccccc2)c(C)n1-c1ccc2c(c1)OCO2 | 55.6 | -15.6 | -38.6 | i | -18.1 | -7.6 | 17.2 | /
O=C(Nc1ccccc1Cl)O/N=C(/c1ccccc1)c1ccccn1 | -13.5 | -9.9 | -21.4 | i | 5.4 | 7.5 | 0.8 | /
Cc1ccc(CCNC(=O)c2ccc3nc4ccccc4c(=O)n3c2)cc1 | / | 0.8 | -10.1 | i | -2.2 | -4.3 | -3.6 | -11.4
CN(C)S(=O)(=O)c1cccc(-c2cn3ccccc3n2)c1 | 13.6 | 11.9 | -10.3 | i | 2.0 | -4.1 | 2.1 | /
COc1ccc(/C=C2\CCn3c2nc2cc(C(=O)O)ccc2c3=O)cc1OC | / | -0.2 | -18.7 | i | 3.6 | 1.6 | -7.6 | 5.2

# Continuation:
# Every second line gives: CSC inhib, PABP FP inh, Yeast UUG start, Rce1 inh, MT1-MMP act inh, MT1-MMP act inh RFP, eIF4H FP inh, Env fusion inh
- O=C(N/N=C/c1cccc(NC(=O)c2ccc(Cl)cc2)c1)c1ccc(O)cc1
→ 37.6, 0.7, /, i, 2.5, 3.0, 7.6, -25.0
- COC(=O)c1ccc(COc2ccc3c4c(c(=O)oc3c2)CCC4)o1
→ -22.7, -8.7, -14.5, i, 2.6, 2.7, -6.2, -73.1
- COc1ccc(-c2cc3nc(NCCOc4ccccc4)ccn3n2)cc1
→ /, /, -11.0, /, -4.7, -7.2, /, 9.8
- S=C(Nc1ccc2nsnc2c1)N1CCCC1
→ 14.0, 45.2, -20.1, /, -12.5, 1.4, 8.7, -20.4
- O=C1NC2(CCCCC2)C(=O)N1c1ccccc1
→ 4.0, -5.5, -3.4, i, -2.5, 1.3, -5.4, -33.9
- COc1ccc(N(CC(=O)NCc2ccccc2C)S(=O)(=O)c2ccc(C)cc2)cc1OC
→ /, 7.4, 3.8, i, 0.2, -3.0, 5.6, 3.6
- CNC(=S)NNS(=O)(=O)c1ccc(OC)cc1OC
→ -17.5, 1.4, -22.4, i, /, /, -9.3, 7.7
- O=C(CC1(O)C(=O)Nc2ccccc21)c1cccnc1 (stereo not drawn)
→ /, 5.3, -17.8, i, -1.9, 4.9, -3.8, /
- NS(=O)(=O)c1ccc(CNC(=O)CNC(=O)c2ccc(F)cc2)cc1
→ -10.4, -3.4, -13.6, i, 1.3, 2.9, -6.0, -6.5
- NC(=O)c1ccc(NC(=O)COC(=O)C(Cc2ccccc2)NC(=O)c2ccccc2)cc1 (stereo not drawn)
→ -11.4, 4.0, /, i, 8.5, 7.7, 0.4, 3.8

# An excerpt from above in order of the Yeast UUG start value, low to high.
molecule | Yeast UUG start | Rce1 inh | MT1-MMP act inh | MT1-MMP act inh RFP | Env fusion inh
COC(=O)c1ccc(COc2ccc3c4c(c(=O)oc3c2)CCC4)o1 | -14.5 | i | 2.6 | 2.7 | -73.1
NS(=O)(=O)c1ccc(CNC(=O)CNC(=O)c2ccc(F)cc2)cc1 | -13.6 | i | 1.3 | 2.9 | -6.5
COc1ccc(N(CC(=O)NCc2ccccc2C)S(=O)(=O)c2ccc(C)cc2)cc1OC | 3.8 | i | 0.2 | -3.0 | 3.6

# Back to the main list; the 3 compounds before the break are reprinted first.
# Every second line gives: CSC inhib, PABP FP inh, Yeast UUG start, Rce1 inh, MT1-MMP act inh, MT1-MMP act inh RFP, eIF4H FP inh, Env fusion inh
- O=C(CC1(O)C(=O)Nc2ccccc21)c1cccnc1 (stereo not drawn)
→ /, 5.3, -17.8, i, -1.9, 4.9, -3.8, /
- NS(=O)(=O)c1ccc(CNC(=O)CNC(=O)c2ccc(F)cc2)cc1
→ -10.4, -3.4, -13.6, i, 1.3, 2.9, -6.0, -6.5
- NC(=O)c1ccc(NC(=O)COC(=O)C(Cc2ccccc2)NC(=O)c2ccccc2)cc1 (stereo not drawn)
→ -11.4, 4.0, /, i, 8.5, 7.7, 0.4, 3.8
- CCCc1cc(=O)[nH]c(SCC(=O)N2CCc3ccccc32)n1
→ 16.1, /, -8.7, /, -1.2, 0.4, /, /
- Cc1cc(C)c(S(=O)(=O)Nc2ccc[nH]c2=O)c(C)c1
→ -7.9, 3.8, -16.1, i, 6.9, 4.2, 4.4, /
- COCCNC(=O)c1c[nH]c2ccc(S(=O)(=O)N(C)c3ccc(C)c(C)c3)cc2c1=O
→ 13.4, -0.5, /, i, -3.6, -2.7, 0.4, 17.5
- Cc1cc(C)n(CCc2nc(-c3ccc(F)cc3)cs2)n1
→ -8.3, 1.0, /, i, 1.7, 5.0, -2.9, -12.3
- O=C(C[n+]1ccc(/C=N/O)cc1)NCc1ccccc1
→ -8.2, -0.9, /, i, -0.4, 2.9, -3.6, -4.5
- NS(=O)(=O)c1cccc(-n2cnnn2)c1
→ -5.3, -6.5, -7.0, i, -1.8, 0.7, 4.6, -0.3
- COc1cccc(/C=N/NC(=O)CNC(=O)c2ccc(S(=O)(=O)N3CCOCC3)cc2)c1OC
→ -8.8, 6.9, /, i, -1.0, 1.9, 7.4, /
- O=C(CN1CCCCC1)Nc1ccccc1C(=O)NC1CC1
→ /, /, -17.2, /, 0.8, 3.6, /, 5.3
- CC(=O)c1cc2c(O)c(O)ccc2o1
→ -6.5, 6.1, 4.9, i, 5.9, -3.6, 0.4, -32.1
- C=CCn1c(SCc2nc3sc4c(c3c(=O)[nH]2)CCCC4)nc2ccccc2c1=O
→ 13.7, 5.4, -11.5, i, -36.4, -9.2, -0.2, -73.8
- O=C(NCCCl)Nc1ccccc1NS(=O)(=O)c1cccs1
→ /, /, -12.6, /, -2.1, 0.7, /, 17.2
- O=C(Nc1ccc(F)cc1F)N1CCN(CCc2ccccc2)CC1
→ -3.3, -3.7, /, i, 1.9, 1.7, -1.4, 0.1
- COc1ccc(N2CCN(CCCNC(=O)c3ccc(CS(=O)(=O)c4ccc(OC)cc4)o3)CC2)cc1
→ -7.5, 2.7, /, i, 0.7, -6.4, -2.0, 2.8
- Nc1nnnn1/N=C/c1ccc(O)cc1
→ 4.1, 7.1, -16.7, /, 2.7, 1.5, 10.0, -7.9
- CCN1C(=O)C2(C(C#N)=C(N)Oc3n[nH]c(-c4ccccc4)c32)c2ccccc21 (stereo not drawn)
→ 1.5, 3.9, -12.6, i, -9.6, -0.9, 5.1, -21.4
- CC(C)(C)NC(=O)CSc1nc(O)cc(=O)[nH]1
→ -0.8, -7.6, /, i, 4.8, 7.8, -14.2, 5.5
- COc1ccccc1CNC(=O)CSc1nc(C)cs1
→ -2.5, -11.1, /, i, 1.3, 5.3, -2.3, -2.8
- CSc1cc(N2CCOCC2)nc(-c2ccccc2Cl)n1
→ -12.7, -1.9, -1.2, i, 1.6, -1.4, -3.4, 38.3
- CCOC(=O)C1(CCCc2ccccc2)CCN(CC(O)CO)CC1 (stereo not drawn)
→ 20.0, 3.8, -7.3, i, -5.7, -0.7, 3.7, 8.1
- O=C(COC(=O)/C=C/c1ccccc1Cl)NC(=O)NC1CCCC1
→ /, /, 1.2, /, -2.6, 2.0, /, -20.1
- COc1ccc(OC)c(C(C)NC(=O)C(C)n2cc([N+](=O)[O-])cn2)c1 (stereo not drawn)
→ -1.7, /, -16.2, /, 1.6, 4.6, /, /
- COc1cccc(CN(C)CCCn2cnc3c(OC)ncnc32)c1
→ /, /, -9.3, /, 1.9, 6.1, /, -17.4
- COc1cccc(OCCSc2nc3ccccc3c(=O)[nH]2)c1
→ 1.8, 6.7, /, i, 1.6, 2.0, -7.2, -23.9
- Cc1ccc(C)c(NC(=O)C(C)N2C(=O)c3ccccc3C2=O)c1 (stereo not drawn)
→ -16.2, 3.0, -21.5, i, 1.3, -1.6, 0.6, -1.8
- O=C(CSc1nnc(-c2ccco2)o1)NC(=O)C1COc2ccccc2O1 (stereo not drawn)
→ /, 5.0, -26.7, i, -2.8, -7.3, 6.3, /

# Ordered by SMILES length (ascending): some entries from above.
# Every second line gives: CSC inhib, PABP FP inh, Yeast UUG start, Rce1 inh, MT1-MMP act inh, MT1-MMP act inh RFP, eIF4H FP inh, Env fusion inh
- O=C(CN1CCCCC1)Nc1ccccc1C(=O)NC1CC1
→ /, /, -17.2, /, 0.8, 3.6, /, 5.3
- Cc1cc(C)n(CCc2nc(-c3ccc(F)cc3)cs2)n1
→ -8.3, 1.0, /, i, 1.7, 5.0, -2.9, -12.3
- Cc1cc(C)c(S(=O)(=O)Nc2ccc[nH]c2=O)c(C)c1
→ -7.9, 3.8, -16.1, i, 6.9, 4.2, 4.4, /
